# HIV TAR-Tat = HIV-1 TAR-Tat binding disruption. HIV-1 TAR RNA, Tat peptide displacement FRET; stronger effect = higher value. z-score (no concentration beside the values). hit rate 0.6% among 100,000. AID 1259389;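 also: score is relative to mean and SD of negative controls; some compounds called inactive have numbers as strong as hits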
# CDC25B CDK2 inh = human CDC25B-CDK2/CyclinA binding inhibition; z-score (no concentration beside the values); hit rate 0.72% among 94,000; P30305+P24941; HTRF CDC25B-CDK2/CyclinA binding, anti-His/anti-Flag; stronger effect = higher value; AID 1259370;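 also: score is relative to mean and SD of negative controls; strong numbers were not always called active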
# * hit, by the source's call; . = no result given; & = joins results of further samples.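 The calls were made as follows: active = z-score from 3 up in half or more of its runs; inactive = the rest.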
Structure,CDC25B CDK2 inh,HIV TAR-Tat
Cc1csc(-c2coc3cc(OC(=O)C(C)NC(=O)OCc4ccccc4)cc(C)c3c2=O)n1 (configuration not stated),-1.22,2.8
C=CCc1cccc(C(=O)O)c1O,-2.42,.
Cn1cnc2c(=O)oc3ccc(S(=O)(=O)NCc4ccc5c(c4)OCO5)cc3c21,-2.51,2.75
CCN(Cc1ccccc1)S(=O)(=O)c1ccc(N2CCCCS2(=O)=O)cc1,.,0.24
CC(C)COc1ccc(C2=NC(c3ccncc3)=Nc3ccc(F)cc3N2)cc1,-1.56,1.95
COc1ccc(-c2n[nH]c(=S)n2-c2ccc(Br)cc2)cc1OC,0.48,.
C=CCNc1nc2c(c(=O)n(C)c(=O)n2C)n1CC,-1.45,.
CCN(CC)c1ccc(C2Nc3ccccc3-c3cc(C)nn32)cc1 (configuration not stated),0.27,-1.25
O=C(CSc1nc2ncccc2[nH]1)Nc1ccc(F)c(Cl)c1,.,1.73
Cc1noc(C)c1C(=O)N1CCN(CCOc2ccccc2)CC1,-1.96,.

# Six structures already listed, arranged by length of the SMILES, low to high.
Structure,CDC25B CDK2 inh,HIV TAR-Tat
C=CCNc1nc2c(c(=O)n(C)c(=O)n2C)n1CC,-1.45,.
Cc1noc(C)c1C(=O)N1CCN(CCOc2ccccc2)CC1,-1.96,.
O=C(CSc1nc2ncccc2[nH]1)Nc1ccc(F)c(Cl)c1,.,1.73
CC(C)COc1ccc(C2=NC(c3ccncc3)=Nc3ccc(F)cc3N2)cc1,-1.56,1.95
Cn1cnc2c(=O)oc3ccc(S(=O)(=O)NCc4ccc5c(c4)OCO5)cc3c21,-2.51,2.75
Cc1csc(-c2coc3cc(OC(=O)C(C)NC(=O)OCc4ccccc4)cc(C)c3c2=O)n1 (configuration not stated),-1.22,2.8

# Following part.
Structure,CDC25B CDK2 inh,HIV TAR-Tat
CC(=O)N1c2ccc(S(=O)(=O)N3CCC(C(=O)N4CC(C)CC(C)C4)CC3)cc2CC1C (configuration not stated),.,1.99
CCc1nn(C(CC)C(=O)NC(C)CCc2ccccc2)c(=O)c2cc3occc3n12 (configuration not stated),-2.16,2.76
COc1cc(-c2cc3c(c(N)c2C#N)c(=O)oc2ccccc23)cc(OC)c1OC,-1.68,.
Cc1cc(=O)n2nc(N3CCC(C(=O)NCCCSC4CCCCC4)CC3)sc2n1,-1.28,-1.29
CC(C)CCN1C(=O)c2cc3ccccc3n2CC1(C)C(=O)NC1CCCC1 (configuration not stated),.,2.59
Cc1ccc(/C=c2/sc3n(c2=O)C(N)=C(C#N)C(c2ccc(C)o2)C=3C#N)o1 (configuration not stated),6.59*,.
Cc1ccccc1OCc1nnc(-c2ccccc2Cl)o1,-0.14,-0.3
O=S(=O)(NCCc1csc2nc(-c3cccs3)nn12)c1cccs1,.,0.35
Cc1csc(NC(=O)c2c3c(nc4ccccc24)C(=O)N(C2CCCCC2)C3)n1,.,0.34
Cc1ccc(C)c(Cn2nnc3c2nc(C)n2c(=O)[nH]nc32)c1,-2.3,-0.6

# Pulled by structure from above (six):
Structure,CDC25B CDK2 inh,HIV TAR-Tat
O=S(=O)(NCCc1csc2nc(-c3cccs3)nn12)c1cccs1,.,0.35
Cc1ccccc1OCc1nnc(-c2ccccc2Cl)o1,-0.14,-0.3
Cc1cc(=O)n2nc(N3CCC(C(=O)NCCCSC4CCCCC4)CC3)sc2n1,-1.28,-1.29
Cc1ccc(C)c(Cn2nnc3c2nc(C)n2c(=O)[nH]nc32)c1,-2.3,-0.6
Cc1ccc(/C=c2/sc3n(c2=O)C(N)=C(C#N)C(c2ccc(C)o2)C=3C#N)o1 (configuration not stated),6.59*,.
CCc1nn(C(CC)C(=O)NC(C)CCc2ccccc2)c(=O)c2cc3occc3n12 (configuration not stated),-2.16,2.76

# Remaining list, next part.
Structure,CDC25B CDK2 inh,HIV TAR-Tat
c1cncc(C2SCCCS2)c1,-1.21,.
CC(=O)Nc1nc2cc3sc(NC(C)=O)nc3cc2s1,-0.2,.
CC(CC(=O)O)CC(=O)Nc1nncs1 (configuration not stated),-0.63,0.4
O=C1CC(c2ccc(F)cc2)C2=C(CC(c3ccccc3Cl)CC2=O)N1 (configuration not stated),3.93,0.59
O=C(CSc1c[nH]c2ccccc12)Nc1ccc(F)cc1,.,0.95
Cc1noc(C)c1S(=O)(=O)Nc1ccc(C(=O)N2CCCC2)cc1,-1.76,.
COc1ccc(C2OCC3OC(OC)C(OCc4ccccc4)C(O)C3O2)cc1 (configuration not stated),-1.53,.
COc1ccc(-c2nc3ccc(C(=O)O)cc3nc2-c2ccc(OC)cc2)cc1,.,2.35
O=C(NCC(=O)N1CCC(N2CCCCC2)CC1)C1CCCCC1,-1.18,.
O=C(NCc1ccco1)Nc1sccc1-n1cccc1,-0.16,.
Cc1ccc(Cn2c(-c3cccs3)noc2=O)cc1,-0.52,0.44
CC(C(=O)c1ccccc1)C1(O)C(=O)Nc2ccccc21 (configuration not stated),-1.41,1.12
NC(=O)C1(N2CCCCC2)CCN(C(=O)c2nc3ccccc3nc2Cl)CC1,0.55,1.24
Cc1ccc(N(C)S(=O)(=O)c2ccc(-c3n[nH]c(C)c3C)s2)cc1,.,0.08
CCC(C(=O)OCc1cc(=O)n2ccsc2n1)c1ccccc1 (configuration not stated),.,0.06
CCCCSCCc1nnc(SCC(N)=O)n1-c1ccccc1,-1.46,2.03
CC(=O)C1C(=O)CC(C)(O)C(C(C)=O)C1c1ccc2c(c1)OCO2 (configuration not stated),0.06,.
CCOC(=O)c1c(C)[nH]c(C)c1S(=O)(=O)N(C)CC(=O)N1CCN(C2CCCCC2)CC1,.,0.9
O=C(NCCCN1CCN(Cc2c(F)cccc2Cl)CC1)c1cccc(C(F)(F)F)c1,-0.93,.
COc1cccc(NC2c3ncccc3C(=O)N2c2ccccc2)c1 (configuration not stated),.,1.65
Cc1cc(-c2ccc(S(=O)(=O)Nc3ccc(C(C)C)cc3)s2)n[nH]1,.,-0.32
CCOc1cc(C2SC(NC(C)=O)=NN2C(C)=O)ccc1OC(=O)c1ccc(C)cc1 (configuration not stated),-1.09,2.26
Clc1ccc(Cc2nn[nH]n2)cc1,-0.8,.
CCc1ccc(Nc2ncnc3sc(C)cc23)cc1,-2.12,.
Cc1nn(C)c(C)c1CNC(=O)c1cnc(N(C)C)nc1,.,1.35
CC[n+]1c(/C=C/c2ccc(N(C)C)cc2)sc2ccccc21,-2.91,-12.6
Cn1c(C(=O)O)ccc1S(=O)(=O)N1CCc2ccccc21,.,1.98
CCn1cc(C(=O)O)c2cc(S(=O)(=O)N(C)C)ccc21,.,0.42
COc1ccc(-c2cc(-c3nc(-c4cccc(OC)c4OC)no3)[nH]n2)c(OC)c1,.,0.77
O=C(Nc1c2c(nn1-c1cccc(Cl)c1)CS(=O)(=O)C2)c1cccc(Br)c1,.,2.41
COCCOC(=O)c1c(C)oc2ccc(OCc3ccc(F)cc3)cc12,-3.48,1.56
CCc1nnc2c(NCc3ccc(C)cc3)nc3ccccc3n12,-1.9,-0.41
CCCn1c(N2CCNCC2)nc2c1c(=O)[nH]c(=O)n2C,-0.56,.
CNc1nc(NCc2ccc(NC(=O)c3ccc(F)cc3)cc2)c2ccccc2n1,.,-0.15
CCc1cc2c(cc3c(=O)n(CC(=O)N4CCCCC4)ncn32)s1,-1.04,1.84
CC1=CC(C)C2(CO)COC(c3cccnc3)C1C2C (configuration not stated),-1.67,1.72
CC(O)c1nc2ccccc2n1CCCCOc1ccccc1 (configuration not stated),-1.52,2.11
O=c1cc(-c2ccccc2)nc2nc[nH]n12,-1.57&-0.37,0.32
O=C(O)C1(c2ccccc2)CCCC1,-1.33,0.33
COC(=O)CC1=C(C)C(=O)CC2C(C)(C)CCC[C@]12C (some centres not stated),-0.34,2.16
CCc1cc2c(=O)c(-c3nc4ccccc4[nH]3)coc2c(CN2CCCC(C)C2)c1O (configuration not stated),-0.21,0.32
CCOC(=O)CS(=O)(=O)c1nc(-c2ccccc2)cc(C(F)(F)F)n1,-4.17,-0.84
O=C(Nc1ccc2c(c1)OCO2)C1CCCN(c2ncnc3c2nc2n3CCCCC2)C1 (configuration not stated),.,0
Cc1cc(C)nc(NC(=O)CSc2nn(-c3ccccc3)c(=S)s2)n1,1.89,0.87
Cc1cccc(-c2c3c(=O)n(C)c(=O)n(C)c3c3cccnn23)c1,-0.23,3.7
COc1ccccc1-c1nnc(-c2ccc3c(c2)OCO3)o1,-1.12,1.19
COCCOC(=O)C1=C(C)NC2=C(C(=O)CC(C)(C)C2)C1c1ccc(OC)cc1 (configuration not stated),0.73,0.05
CN(C1CCCCC1)C1CCN(C(=O)Cn2c(=O)oc3cc(Cl)ccc32)CC1,.,0.09
CCOC(=O)C1C(C)=NC(=O)NC1/C=C/c1ccccc1 (configuration not stated),-0.95,2.39
CC1=C(c2ccc(Cl)cc2)S(=O)(=O)N=C1N1CCCCC1,-2.07,-0.67

# Following part.
Structure,CDC25B CDK2 inh,HIV TAR-Tat
Cc1ccccc1NS(=O)(=O)c1cccc2c(N(C)C)cccc12,-1.02,-0.1
Cc1cccc(Nc2nc(-c3ccncc3)cs2)c1,-1.78,1.81
CC(C)(C)NC(=O)c1oc2ccccc2c1NC(=O)c1ccc2c(c1)OCO2,.,2.48
Cc1cc(N2C(=O)CCS2(=O)=O)cc(C)c1S(=O)(=O)N1CCc2ccccc2C1,-0.76,-0.41
CN(C)c1ccc(N2C(N)=NC(N)=NC23CCCC3)cc1,-2.01,.
COc1ccc(-c2nc3cc4c(cc3o2)Oc2ccccc2N4)cc1,-1.22,.
CCOC(=O)c1cnc(-c2cccs2)nc1Sc1ccc(Cl)cc1,-0.09,.
O=C1CC(c2ccc(O)cc2)c2cnn(-c3nc4ccccc4s3)c2N1 (configuration not stated),.,2.39
CCc1ccc(-c2cc(C3=NN(C(C)=O)C(c4ccccn4)O3)[nH]n2)cc1 (configuration not stated),.,-0.61
COc1ccc(C(=O)CSc2nc3n(n2)C(c2cccs2)C2=C(CC(C)(C)CC2=O)N3)cc1 (configuration not stated),-1.24,2.82
Cc1nn(CC(=O)NC2CCCC(C)C2C)c(=O)c2cccn12 (configuration not stated),-1.54,0.78
COc1cc(OC)c(NS(=O)(=O)c2ccc3c(c2)NC(=O)CC(C)S3)cc1Cl (configuration not stated),.,0.36
CCCSc1nnc(NC(=O)c2nc(SCC)ncc2Cl)s1,-1.2,1.92
CCc1c(C)nc2nncn2c1NCc1ccco1,-1.67,1.72
CC1=C(C(=O)Nc2ccc(Cl)cc2C(=O)NCC2CCCO2)SCCO1 (configuration not stated),.,1.05
O=C(OCc1ccccc1)C1=NNC2(CC(=O)N(c3ccc(Cl)cc3)C2=O)C1 (configuration not stated),-0.3,-0.74
CC1CCCCC1NC(=O)CCC(=O)N1CCOc2ccc(Cl)cc21 (configuration not stated),-1.7,1.55
Cc1cc(-c2ccc(C)c(S(=O)(=O)N3CCN(c4ccc(F)cc4)CC3)c2)on1,.,1.02
CC(C)N1C(=O)C(O)(CC(=O)c2ccc(Br)cc2)c2ccccc21 (configuration not stated),-0.95,.
Cn1c(=O)c2cn3c(c2n(C)c1=O)C(c1cc(Cl)ccc1O)Nc1ccccc1-3 (configuration not stated),-1.08,1.15
CC1(C)CC(=O)C2=C(C1)Nc1[nH]c(=S)[nH]c(=O)c1C2c1ccc2c(c1)OCO2 (configuration not stated),0.45,.
Clc1ccc(C2=Nn3c(CSc4ccccc4)nnc3SC2)cc1,-0.29,-7.38
O=C(Nc1ccc2c(c1)nc1n2CCN(C2CCCCC2)C1)NC1CCCCC1,-1.29,-2.97
CCOC(=O)N1CCC(NC(=O)c2ccc(C)cc2)CC1,-2.34,.
Cn1c(C(=O)NCCCN2CCCC2)cc2c(=O)[nH]c3ccccc3c21,-0.94,.
CCOC(=O)c1sc2nc(N3CCCC3)c3c(c2c1N)CC(C)(C)OC3,0.23,.
c1ccc(-c2csc3ncnc(N4CCN(Cc5ccc6c(c5)OCO6)CC4)c23)cc1,0.49,2.26
Cc1ccc(-n2ncc3c(=O)n(-c4ccc(F)c(Cl)c4)c(C)nc32)cc1,-1.67,.
CC1=NN(c2ccccc2)C(=O)C1C(=O)c1ccccc1Br (configuration not stated),-0.34,0.05
Cc1ccc(OCc2nc(C#N)c(NCc3ccco3)o2)cc1,1.06,3.63
O=C1CC(c2ccco2)CC2=C1C(c1cccs1)N(C(=O)c1ccccc1)c1ccccc1N2 (configuration not stated),0.26,0.4
COC(=O)C1=C(N)OC2=C(C(=O)CCC2)C1c1cccs1 (configuration not stated),-1.1,.
COc1ccc(NC(=O)c2cc(OC)c3cc(Cl)ccc3n2)cc1Cl,0.98,-1.98
O=C1CCCc2cc(S(=O)(=O)NCCN3CCOCC3)ccc2N1,.,-0.05
COc1cc(OC)c(NS(=O)(=O)c2c(C)nc3scc(C)n3c2=O)cc1Cl,-2.15,-0.56
COc1ccc(C2N(C)c3ccccc3N2C)cc1OC,0.34,0.8
CCCCCCn1c(=O)[nH]c2nc3cc(N(C)C)ccc3nc2c1=O,-0.18,-6.44
Cn1c2c(c(=O)n(C)c1=O)C(CC(=O)Nc1ccccc1)C(=O)N2 (configuration not stated),0.01,0.37
Nc1ncnc(Nc2ccc3c(c2)OCO3)n1,-1.85,.
COc1ccc2[nH]c(=O)cc(C(=O)O)c2c1,0.85,12.6*
CCCc1cc(=O)n2nc(N3CCC(C(=O)NCCOC)CC3)sc2n1,0.48,2.45
Cn1c(=O)n(CC(=O)N2CCCC2)c(=O)c2cc(S(=O)(=O)N3CCCc4ccccc43)ccc21,.,1.34

# Screening results: PubChem, Center for Chemical Genomics, University of Michigan
